Screens: PubChem BioAssay, National Center for Advancing Translational Sciences (NCATS)
PINK1 expr mod: A Quantitative High throughput Screen to Identify Chemical Modulators of PINK1 Expression; hit rate 0.2% among 410,000; AID 624263, 2012; PINK1 immunofluorescence, high-content cytometry, 24 h; Potency, µM (doses to about 76.6 µM), inactives show at the highest dose activation (PINK1 increase), usual class: activators; active = well fitted activation curve with a large enough effect; inconclusive = small, poorly fitted or top-dose-only effect; inactive = flat fitted curve, though single readings scatter; cell line not stated here;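 further: potency means the concentration at half of the fitted maximal effect; % of control where 0% means no effect; nearly all actives have a fitted effect of over 65% in size; a mitochondrial uncoupler was the plate control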
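Fluorescence from anti-PINK1 antibody, together with nuclear and cell stains, was scanned on a laser-scanning cytometer. Before staining, stable-line cells were incubated 24 hours with compounds at 5 concentrations; primary antibody 12 h at 10 degrees C.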
TRPML1 ag: qHTS for Agonists of the Human Mucolipin Transient Receptor Potential 1 (TRPML1); TRPML1-expressing cells, Ca2+ dye fluorescence, FDSS; host cell line not named in the record; reference of the full effect not given here; AID 624414, 2012; activation, % (no concentration beside the values); hit rate 0.12% among 410,000; in the data active = activation above about 50%; inconclusive = about 30% to 50%; inactive = below about 30%; further: 0% is about no effect; the text of the record puts the active cut at 80%
Target sequence (Q9GZU1 whole entry, looked up): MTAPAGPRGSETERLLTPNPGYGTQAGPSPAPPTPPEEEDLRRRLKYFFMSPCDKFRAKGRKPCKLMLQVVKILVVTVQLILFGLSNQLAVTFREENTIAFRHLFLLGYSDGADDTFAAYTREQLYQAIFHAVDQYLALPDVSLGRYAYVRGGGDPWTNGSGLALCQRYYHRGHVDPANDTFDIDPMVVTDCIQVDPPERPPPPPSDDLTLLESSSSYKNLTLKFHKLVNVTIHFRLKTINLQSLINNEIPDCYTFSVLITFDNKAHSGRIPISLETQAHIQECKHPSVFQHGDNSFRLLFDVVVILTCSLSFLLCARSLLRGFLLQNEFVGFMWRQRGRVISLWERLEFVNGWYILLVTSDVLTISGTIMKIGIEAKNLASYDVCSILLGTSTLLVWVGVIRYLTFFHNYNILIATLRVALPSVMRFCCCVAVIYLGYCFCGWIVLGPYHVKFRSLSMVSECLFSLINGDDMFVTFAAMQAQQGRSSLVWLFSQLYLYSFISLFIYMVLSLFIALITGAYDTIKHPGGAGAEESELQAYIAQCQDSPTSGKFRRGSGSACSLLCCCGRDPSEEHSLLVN
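Cells: TRPML1-DL, 1X Tet inducer, ~16 h at 37 degrees C/5% CO2. Dye: ABD Ca8 no-wash + quencher, 45-90 min RT. Read: 10 s baseline, compound add, 110 s agonist phase; 54-4 EC80 (4uM final), 110 s antagonist phase.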
Six1-Eya2 inh: qHTS Assay for Inhibitors of the Six1/Eya2 Interaction. AlphaScreen GST-Six1/His-Eya2 binding, biochemical; hits give low values; control for the full effect not named in the record. activity change, % (concentration not given with the values). hit rate 0.56% among 360,000. AID 651725, 2012; in the data active = activity change below about -65%; inconclusive = about -30% to -65%; inactive = above about -30%; further: on the % scale 0 is the no-effect control and ±100 the full control effect
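Six1/Eya2 binding was read as AlphaScreen signal after compounds were pinned into GST-Six1 plus His-tagged Eya2 (5X stock 250/500 nM) in pH 8.0 Tris/NaCl/TCEP buffer, beads added, then incubated 1 h, 37 C, dark.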
D2 ag: Beta-Arrestin HTS for Positive Allosteric Modulators of the Human D2 Dopamine Receptor: Agonists | D(2) dopamine receptor (Homo sapiens), P14416 | activation, % (concentration not given with the values) | hit rate 0.084% among 360,000 | DiscoveRx PathHunter D2 beta-arrestin, luminescence, 90 min; 100% = 57 uM dopamine signal; in the data active = activation above about 40%; inconclusive = about 15% to 40%; inactive = below about 15%; further: compound concentration not given in the record; the text of the record calls up to 30% inactive
Target sequence (P14416 whole entry, looked up): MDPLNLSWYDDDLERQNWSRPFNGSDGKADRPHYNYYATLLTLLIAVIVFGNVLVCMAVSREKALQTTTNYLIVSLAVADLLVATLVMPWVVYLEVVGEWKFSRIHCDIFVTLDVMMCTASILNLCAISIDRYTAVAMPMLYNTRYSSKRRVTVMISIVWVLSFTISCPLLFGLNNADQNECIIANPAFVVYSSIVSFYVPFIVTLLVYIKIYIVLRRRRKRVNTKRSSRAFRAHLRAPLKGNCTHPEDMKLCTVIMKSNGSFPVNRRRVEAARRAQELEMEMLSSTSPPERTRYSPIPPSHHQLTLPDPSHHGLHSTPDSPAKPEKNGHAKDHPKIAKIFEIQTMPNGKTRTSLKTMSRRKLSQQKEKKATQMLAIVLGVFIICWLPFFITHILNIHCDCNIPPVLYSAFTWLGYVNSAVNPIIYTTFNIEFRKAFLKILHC
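DiscoveRx PathHunter D2 beta-arrestin cells (2,100/well) attached overnight, then compound-stimulated 90 min at 37 C in HBSS/10 mM HEPES/0.1% Tween-20 buffer; beta-galactosidase complementation read by luminescence after 1 h at ambient temperature. Dopamine 57 uM final (EC100) as control.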
CtBP-E1A inh: qHTS Assay for Inhibitors of the CtBP/E1A Interaction. CtBP / adenovirus E1A interaction (AlphaScreen). AlphaScreen GST-E1A/His-CtBP binding, 1536-well; hits give low values; control for the full effect not named in the record. activity change, % (concentration not given with the values). hit rate 0.49% among 340,000; in the data active means activity change below about -65%; inconclusive means about -30% to -65%; inactive means above about -30%; further: on the % scale 0 is the no-effect control and ±100 the full control effect
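Homogeneous bead-based format: GST-tagged E1A captured on glutathione donor beads, His-tagged CtBP on nickel acceptor beads; compounds precede bead addition by 2 h at 37 °C.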
TRPML1 blocker: qHTS for Inhibitors of the Human Mucolipin Transient Receptor Potential 1 (TRPML1). Mucolipin-1 (Homo sapiens), Q9GZU1. TRPML1-inducible cells, Ca2+ dye fluorescence, FDSS; hits give low values; inhibition of EC80 agonist-evoked calcium signal. activity change, negative = inhibition, % (concentration not given with the values). hit rate 0.02% among 390,000; in the data active means activity change below about -50%; inconclusive means about -30% to -50%; inactive means above about -30%;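 further: stimulus is agonist 54-4 at its EC80 concentration; on the % scale 0 is the no-effect control and ±100 the full control effect; compound concentration not given in the record; the text of the record puts the active cut at -80%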
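TRPML1-DL cells, Tet-induced overnight (~16 h, 37 °C) at 1,500 cells/well, were loaded with Ca8 no-wash dye plus quencher for 45-90 min at room temperature. Compounds were pinned during FDSS kinetic reading; agonist 54-4 at EC80 (4 uM final) then added.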
* hit, by the source's call; ? = inconclusive; nt = not tested or not shown; [ ] = dose if it differs, or a comment. The order is random. Share with any hit: about 1%.

SMILES | PINK1 expr mod | TRPML1 ag | Six1-Eya2 inh | D2 ag | CtBP-E1A inh | TRPML1 blocker
Cc1ccc(C2=N/C(=C\N3CCCCC3)C(=O)O2)cc1 | -14%[38.3 µM] | 1.1 | -26 | -2.5 | -27 | 31
CC(C)(C)SCCNC(=O)CN1C(=O)c2cccc3cccc1c23 | 7.5% | 0.6 | 11 | -0.5 | 7 | -7
OC[C@H]1O[C@H](OCCc2ccc(O)cc2)[C@H](O)[C@@H](O)[C@@H]1O | -0.3% | -0.9 | 5 | -0.3 | 1 | 7
Cc1ccc(CNC(=O)CCC(=O)N2CC3CCCN3c3ccccc32)cc1 (centres undefined) | 0.9% | 0.2 | nt | nt | nt | 2
CCOc1ccc(C2c3[nH]c4ccccc4c3CCN2C(=O)CSc2ccccc2)cc1 (centres undefined) | 3.4% | 0.7 | nt | nt | nt | -6
CCN(CC)S(=O)(=O)c1ccc2c(c1)N(CC(=O)N1CCN(c3cccc(C(F)(F)F)c3)CC1)C(=O)CO2 | -0.3% | -0.3 | nt | nt | nt | 15
COCCCNC(=O)c1cc2cc(Br)ccc2oc1=O | -1.0% | -0.6 | 0 | -1.4 | 1 | 1
O=C(NCCO)c1ccc(-c2ccc3nncn3c2)cc1 | 3.9% | -0.4 | 18 | -4.4 | 15 | nt
Cc1cc(OCC(=O)OCC(=O)N2c3ccccc3NC(=O)C2(C)C)ccc1Cl | -0.2% | 0.4 | -5 | -4.9 | 3 | -1
COc1ccc(CCNC(=O)c2nc(-c3ccc(Cl)cc3)n3c2CCCCC3)c(OC)c1 | 1.5% | 0.2 | nt | nt | nt | 3
CCOC(=O)Cn1nc(C)n(-c2ccccc2)c1=O | -0.8% | -0.7 | 4 | -0.3 | 5 | 4
Cc1c(O)ccc2c(=O)c(-c3nncn3-c3ccccc3)coc12 | -1.0% | -0.2 | 12 | -5.8 | nt | 2
CCCCNC(=S)NCc1ccc2[nH]c(C)cc2c1 | 3.5% | -0.3 | -3 | 1.3 | -3 | 15
COc1ccc(C2C(C(=O)Nc3ccccc3)=C(C)Nc3nc(-c4ccccc4)nn32)cc1OC (centres undefined) | 4.9% | -0.7 | nt | nt | nt | -10
O=C(O)c1ccccc1SCC(=O)N1c2ccccc2Sc2ccccc21 | 0.5% | 2.7 | -2 | ? | -3 | 14
Cc1cc(C)n2nc(C(=O)Nc3cccc(S(=O)(=O)N4CCOCC4)c3)nc2n1 | -1.3% | 0.6 | -14 | -2.8 | -13 | -8
C[C@H](CO)N1C[C@H](C)[C@H](CN(C)Cc2cccc(O)c2)OCc2ccccc2-c2c(n(C)c3ccccc23)C1=O | 6.4% | -0.4 | 7 | ? | -6 | 7
CC(C)CC(NS(=O)(=O)c1ccc2c(c1)oc(=O)n2C)C(=O)NCCc1ccc(Cl)cc1 (centres undefined) | 1.0% | 0.0 | nt | nt | nt | -1
CC1(C)CC(=O)C=C(N2CCCC2)C1 | -3.9%[38.3 µM] | -0.2 | 5 | 0.3 | 6 | 3
Cc1cccc(C(=O)O)c1NC(=O)c1ccc(F)cc1 | -0.3% | -0.2 | 3 | -5.7 | -2 | -1

Arranged by formula weight (largest number first): some entries from above
SMILES | PINK1 expr mod | TRPML1 ag | Six1-Eya2 inh | D2 ag | CtBP-E1A inh | TRPML1 blocker
CC(C)CC(NS(=O)(=O)c1ccc2c(c1)oc(=O)n2C)C(=O)NCCc1ccc(Cl)cc1 (centres undefined) | 1.0% | 0.0 | nt | nt | nt | -1
O=C(O)c1ccccc1SCC(=O)N1c2ccccc2Sc2ccccc21 | 0.5% | 2.7 | -2 | ? | -3 | 14
Cc1ccc(C2=N/C(=C\N3CCCCC3)C(=O)O2)cc1 | -14%[38.3 µM] | 1.1 | -26 | -2.5 | -27 | 31

Continued.
SMILES | PINK1 expr mod | TRPML1 ag | Six1-Eya2 inh | D2 ag | CtBP-E1A inh | TRPML1 blocker
COc1ccc(CNC(=O)CCS(=O)(=O)c2ccc3c(c2)NC(=O)CS3)cc1 | 0.1% | -0.6 | -6 | 0.0 | 0 | -6
Cc1cc(C)cc(N(CC(=O)NCCSc2ccccn2)S(=O)(=O)c2ccccc2)c1 | 1.2% | 2.7 | 3 | -4.6 | 6 | -10
Cc1nc2cc(CO)ccc2s1 | -0.2% | -0.6 | 7 | -0.7 | 1 | -14
Cc1ccc(-c2noc(-c3ccc(N4CCN(C)CC4)c([N+](=O)[O-])c3)n2)cc1 | -0.1% | -0.6 | nt | nt | nt | 5
O=C(CSc1nc2c([nH]c3ccccc32)c(=O)n1-c1cccc(Cl)c1)N1CCc2ccccc21 | -3.6% | 1.4 | nt | nt | nt | 21
CCN(C1CCCCC1)S(=O)(=O)c1ccc(C(=O)O)cc1 | 0.4%[38.3 µM] | 0.6 | 4 | 4.0 | 1 | -5
Cc1ccc(NC(=O)COC(=O)c2ccc(NC(=O)CC#N)cc2)cc1S(=O)(=O)N1CCOCC1 | 2.5% | 0.1 | -21 | -3.6 | -24 | 4
O=C(Nc1ccc(S(=O)(=O)N2CCOCC2)cc1)c1ccc(Cl)c([N+](=O)[O-])c1 | -0.7% | -0.1 | -14 | 5.7 | 8 | 2
O=C(CSc1cccc[n+]1[O-])c1ccccc1Br | -1.3% | 1.3 | 4 | -3.5 | 4 | 49
CC(=O)N(CN1C(=O)CCC1=O)c1ccc(Cl)c(Cl)c1 | 1.3% | 0.2 | 4 | -2.1 | -3 | -8

Full records as entered above.
Cc1ccc(-c2noc(-c3ccc(N4CCN(C)CC4)c([N+](=O)[O-])c3)n2)cc1 as listed: PINK1 expr mod: -0.1%; TRPML1 ag: -0.6; Six1-Eya2 inh: nt; D2 ag: nt; CtBP-E1A inh: nt; TRPML1 blocker: 5
COc1ccc(CNC(=O)CCS(=O)(=O)c2ccc3c(c2)NC(=O)CS3)cc1 as listed: PINK1 expr mod: 0.1%; TRPML1 ag: -0.6; Six1-Eya2 inh: -6; D2 ag: 0.0; CtBP-E1A inh: 0; TRPML1 blocker: -6

The listing continues.
SMILES | PINK1 expr mod | TRPML1 ag | Six1-Eya2 inh | D2 ag | CtBP-E1A inh | TRPML1 blocker
CCOc1cc(C(=O)OCC(=O)Nc2ncc(Cl)c(C)c2Cl)ccc1OCC(=O)N1CCOCC1 | 0.7% | -0.6 | -2 | -5.1 | 3 | 17
COC(=O)C(C)Oc1ccc(-c2nccc(-c3ccc(F)cc3)n2)cc1 (centres undefined) | -2.8% | 2.4 | 9 | 4.1 | 18 | 13
CC(C)N1CC(C(=O)Nc2ccc(F)c(Cl)c2)CC1=O (centres undefined) | -0.5% | 0.4 | 3 | 5.6 | -2 | 6
CCOC(=O)c1c2n(c3ccc(OC(C)=O)cc13)CCC2 | 2.5% | 0.5 | -1 | 1.7 | 2 | -6
C[C@@H]1CN([C@@H](C)CO)C(=O)CCCn2nncc2CO[C@@H]1CN(C)C(=O)Nc1ccc(N2CCCCC2)cc1 | -0.3% | nt | -4 | 2.0 | 2 | nt
O=C(NCC1CCCO1)c1cc(-c2ccccc2)nc2ccc(Br)cc12 (centres undefined) | 10% | -0.2 | 3 | -3.0 | 4 | 12
COc1ccc(C(=O)Nc2ccc(N3CCN(C)CC3)cc2)cc1OC | -0.5% | 0.0 | -5 | -1.4 | 0 | -10
C/C(Nc1ccc(C)cc1)=C(/C#N)C(N)=O | -1.3%[38.3 µM] | -0.6 | 0 | -2.3 | -2 | 0
CCOc1ccc(CCNC(=O)c2cccc(-n3cnnn3)c2)cc1OCC | -2.0% | 2.7 | -1 | 0.0 | 1 | 8
Cc1nc(NC(=O)c2ccc(Br)o2)ccc1Br | 0.5% | 0.5 | -8 | -8.7 | -11 | -2
CC(C)CN(CC(C)C)C(=O)Nc1ccccc1F | 5.0% | -0.7 | 10 | 2.0 | 2 | 3
CCc1ccc(N2CC(C(=O)OCC(=O)c3c(N)n(CC(C)C)c(=O)n(C)c3=O)CC2=O)cc1 (centres undefined) | 19% | 0.4 | -4 | -0.1 | 2 | 0
COc1ccccc1N1CCN(C(=O)CSc2nc3ccccc3[nH]2)CC1 | -0.9%[38.3 µM] | 0.3 | -1 | 1.3 | 2 | 3
COc1cccc(NC(=O)CSc2ccccn2)c1 | -0.9% | -0.5 | 3 | -4.7 | 8 | -5
O=C(COC(=O)c1cc(-c2cccc3ccccc23)nc2ccccc12)NC1CCS(=O)(=O)C1 (centres undefined) | 0.1% | -0.2 | -8 | -2.3 | 0 | 18
COCCN(Cc1cc2ccc(C)c(C)c2nc1Cl)C(=O)N1CCOCC1 | -0.8% | -0.1 | -3 | 3.9 | 4 | -2
O=C(Nc1cccc(S(=O)(=O)N2CCCC2)c1)c1cc(-c2ccccn2)nc2ccccc12 | -1.6% | 0.6 | -9 | 9.9 | -7 | -11
Cc1cc(C)n(C(=O)CNc2ccccc2Cl)n1 | 7.4% | 0.1 | 13 | -5.6 | 26 | -6
CCOC(=O)CCC(=O)N1CCOCCOCCN(C(=O)CCC(=O)OCC)CCOCCOCC1 | 0.9% | -0.3 | -3 | -3.8 | 2 | 3
Cn1c(=N)n(CC(=O)c2ccccc2)c2ccccc21 | -0.2% | 0.0 | 13 | -1.6 | 2 | 2
Cc1cccc(-n2c3nc(=O)[nH]c(=O)c-3cc3ccc(Cl)cc32)c1C | 0.2% | 2.2 | nt | nt | nt | 0
CN1CCC(=NNC(=O)CN(c2ccc(Oc3ccccc3)cc2)S(C)(=O)=O)CC1 | -0.2% | 0.3 | 4 | -3.1 | -2 | -12
COc1ccc(N2CCN(C(=O)CSc3ncnc4scc(-c5ccc(C)cc5)c34)CC2)cc1 | -0.4% | 1.5 | ? | -3.8 | ? | -6
COc1ccc(N=c2oc3ccc(OC)cc3cc2-c2nc3ccccc3[nH]2)cc1 | -1.6% | -0.8 | 3 | -0.3 | -2 | -10
CC(C)Cn1c(N)c(C(=O)NCc2cccs2)c2nc3ccccc3nc21 | -1.7% | -0.2 | 33 | -0.5 | 12 | -15
CCCC(=O)Nc1nc(C(=O)OCC)cs1 | nt | -0.2 | -5 | -1.6 | -12 | 0
O=C1c2ccccc2C(=O)N1CC1=CCS(=O)(=O)C1 | 3.3% | -0.7 | 2 | -2.6 | 8 | 5
NC(=O)C1CCN(C(=O)C2CCN(C(=O)Nc3ccccc3)CC2)CC1 | 1.9% | 0.5 | 6 | -0.9 | 5 | 15
CCN(c1ccccc1)S(=O)(=O)c1cc(NC(=O)COC(=O)C2CC2)ccc1Cl | -1.3% | 3.5 | -1 | -0.3 | 0 | 19
